BmaI1 = BmaI1 acyl-homoserine lactone synthase inhibition – biochemical, fluorescence intensity, with counterscreen (AID 720554). BmaI1 enzyme assay, fluorescence intensity; active compounds read high; test concentration not given here; a few actives read low; strong numbers were not always called active. inhibition, %. actives 0.4% (n = 12,000);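 active = both replicates within 2 robust z-scores of the inhibited control and a quiet counterscreen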;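 note: 0% = uninhibited enzyme and 100% = inhibited control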
BmaI1 counterscreen = also measured in BmaI1; calls as there; inhibition, %; measured here: counterscreen; design of the counterscreen not given here;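 first of two replicates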
An asterisk follows results filed as active.

Start of the listing, in advance (13 entries):
entry	SMILES	BmaI1 counterscreen	BmaI1
1	CCCCc1ccc(C(NC(=O)CCCn2cnc3c2c(=O)n(C)c(=O)n3C)c2cccs2)cc1 (configuration not stated)	3.0	8.0
2	Oc1ccc(-c2nc3ccccc3s2)cc1	13.0	19.5
3	Cc1occc1-c1nnc(SCC(=O)c2c[nH]c3ccccc23)n1-c1ccccc1	-4.0	2.5
4	Cc1cc(C(=O)C(C)Sc2n[nH]c(N)n2)c(C)n1-c1ccccc1 (configuration not stated)	13.5	24.0
5	CC(Sc1nc2sc3c(c2c(=O)n1C)CCC3)C(=O)Nc1ccc(Cl)cn1 (configuration not stated)	3.5	3.0
6	O=c1[nH]c(CNCCO)nc2ccsc12	-8.5	3.5
7	COc1cc(NS(=O)(=O)c2cccc(Cl)c2Cl)cc(OC)c1	10.0	10.5
8	CN(CC1COc2ccccc2O1)c1cc(=O)n2cc(Cl)ccc2n1 (configuration not stated)	8.0	15.5
9	Cc1cccc(NC(=O)C(C)(C)C)c1	7.0	3.0
10	Cc1[nH]c(=O)c(C#N)c(C)c1CCC(=O)NC1CCCCCC1	3.5	14.5
11	Cc1ccccc1C(=O)N1CCC(C(=O)Nc2ccccc2)CC1	6.5	7.5
12	COc1ccccc1NC(=O)NCC(c1ccco1)N(C)C (configuration not stated)	5.5	12.0
13	COc1cc(OC)cc(OC(=O)c2cc(NC(C)=O)cc(NC(C)=O)c2)c1	-2.5	2.0

Results, from the start:
entry	SMILES	BmaI1 counterscreen	BmaI1
1	CCCCc1ccc(C(NC(=O)CCCn2cnc3c2c(=O)n(C)c(=O)n3C)c2cccs2)cc1 (configuration not stated)	3.0	8.0
2	Oc1ccc(-c2nc3ccccc3s2)cc1	13.0	19.5
3	Cc1occc1-c1nnc(SCC(=O)c2c[nH]c3ccccc23)n1-c1ccccc1	-4.0	2.5
4	Cc1cc(C(=O)C(C)Sc2n[nH]c(N)n2)c(C)n1-c1ccccc1 (configuration not stated)	13.5	24.0
5	CC(Sc1nc2sc3c(c2c(=O)n1C)CCC3)C(=O)Nc1ccc(Cl)cn1 (configuration not stated)	3.5	3.0
6	O=c1[nH]c(CNCCO)nc2ccsc12	-8.5	3.5
7	COc1cc(NS(=O)(=O)c2cccc(Cl)c2Cl)cc(OC)c1	10.0	10.5
8	CN(CC1COc2ccccc2O1)c1cc(=O)n2cc(Cl)ccc2n1 (configuration not stated)	8.0	15.5
9	Cc1cccc(NC(=O)C(C)(C)C)c1	7.0	3.0
10	Cc1[nH]c(=O)c(C#N)c(C)c1CCC(=O)NC1CCCCCC1	3.5	14.5
11	Cc1ccccc1C(=O)N1CCC(C(=O)Nc2ccccc2)CC1	6.5	7.5
12	COc1ccccc1NC(=O)NCC(c1ccco1)N(C)C (configuration not stated)	5.5	12.0
13	COc1cc(OC)cc(OC(=O)c2cc(NC(C)=O)cc(NC(C)=O)c2)c1	-2.5	2.0
14	CCn1c(=O)c(=O)[nH]c2cc(C(=O)NC(C)c3ccc(S(N)(=O)=O)cc3)ccc21 (configuration not stated)	8.5	17.0
15	CC1CN(CC(=O)NC(c2ccccc2)c2ccccc2)CC(C)O1 (configuration not stated)	4.5	9.0
16	O=S(=O)(/N=C(\Nc1ccncc1)c1ccccc1)c1ccccc1	5.5	9.5
17	NC(=O)COC(=O)c1cccc(C(F)(F)F)c1	1.0	4.5
18	c1ccc(-c2nnsc2-c2ncc[nH]2)cc1	-1.0	-1.5
19	CC(=O)NCc1ccc(-c2csc(N)n2)o1	17.5*	92.5*
20	O=C(COc1ccc(Cl)cc1Cl)Sc1nc2ccccc2o1	7.0	26.0
21	Cc1cc(C(=O)CSc2nnc3n2CCCCC3)c(C)n1C1CCS(=O)(=O)C1 (configuration not stated)	-2.5	8.5
22	CCS(=O)(=O)c1ccc2oc(SCC(=O)N3CC(C)OC(C)C3)nc2c1 (configuration not stated)	6.0	7.0
23	CCCn1c(NC(=O)Cc2coc3cc(OC)ccc23)nc2ccccc21	1.0	4.0
24	CCOC(=O)Cc1n[nH]c(=S)n1C1CCCCC1	12.5	29.0
25	CC(=O)Nc1ccc(S(=O)(=O)N(C)c2ccc(OCC(=O)OCC(=O)N3CCCCC3)cc2)cc1	-3.0	-3.5
26	COc1ccc(S(=O)(=O)N(C)Cc2ccc(OC)cc2OC)cc1	3.5	4.0
27	COC(=O)c1ccc(CSc2nc3ccc(C)cc3[nH]2)o1	0.0	11.0
28	COc1cc(NC(=O)CNc2cc(Cl)cc(Cl)c2)cc(OC)c1	12.0	15.0
29	N#CC(C(=O)c1nc(N2CCN(Cc3ccccc3)CC2)ncc1Cl)c1nc2ccccc2c(=O)[nH]1 (configuration not stated)	17.0	20.0
30	CCOC(=O)c1ccc(N=C=S)cc1	25.0	35.5
31	O=C(CSc1ncnc2c1oc1ccccc12)c1cc2c3c(c1)CC(=O)N3CCC2	15.0	17.5
32	CCN1CCN(c2cc3c(cc2F)c(=O)c(C(=O)O)cn3C2CC2)CC1	15.5	10.5
33	CN(C)S(=O)(=O)c1ccc(C(=O)N2C(=O)c3cccc(N)c3C2=O)cc1	14.0	4.0
34	CC(C)CN1C(=O)C(O)(c2nnc(-c3ccccc3)o2)c2ccccc21 (configuration not stated)	-13.0	-3.5
35	CC(C)(C)C1CCc2nc(NC(=O)CC#N)sc2C1 (configuration not stated)	14.5	17.5
36	O=C(CC1(C(=O)O)CCCC1)N1CCOCC1	12.0	8.0
37	CCN(CC)S(=O)(=O)c1ccc(N2CC(C)OC(C)C2)nc1 (configuration not stated)	4.5	12.0
38	O=C(CN1CCN(c2ccccn2)CC1)N1CCc2ccccc2C1	-5.5	-11.5
39	CC(=O)Nc1ccccc1OC(C)C(=O)N1CC(C)CC(C)C1 (configuration not stated)	8.5	8.5
40	CN(Cc1cccs1)c1cc(=O)n2cc(Cl)ccc2n1	1.5	21.0
41	CCOC(=O)c1[nH]c(C)c(C(=O)OCCOc2cccc(C)c2)c1C	2.5	4.0
42	Cc1noc(C)c1COc1cccc(C(=O)N2CCc3ccccc32)c1	5.0	1.5
43	O=C(Cn1c(CCCO)nc2ccccc21)N1CCc2ccccc21	-4.5	-15.5
44	Cc1sc2nc(C(C)Sc3nnc(CN4CCCC4)n3Cc3ccccc3)[nH]c(=O)c2c1C (configuration not stated)	-6.0	-6.5
45	Cc1ccc(-c2csc3nc(CN(C)C4CCN(C)CC4)[nH]c(=O)c23)cc1	5.5	10.5
46	Oc1c(CN2CCN(c3ncccn3)CC2)cc(Cl)c2ccccc12	14.0	38.5
47	CN1C(=O)/C(=C/c2cn(CC(=O)N3CCOCC3)c3ccccc23)c2ccccc21	10.5	14.5
48	CN(C)c1ccc(/C=N/NC(=O)C2SCCCS2)cc1	-11.5	-4.5
49	CCC(=O)Nc1ccc(C(=O)Cn2c(=O)oc3ccccc32)cc1	-4.0	0.5
50	CC(Cc1ccccc1)(NC(=O)CN)c1ccccc1 (configuration not stated)	-12.0	-20.0
51	CCOC(=O)C1=C(CN(C)Cc2ccc(C)cc2)NC(=O)NC1CC (configuration not stated)	10.0	18.5
52	CCCn1c(N)c(C(=O)CN2CCCc3ccccc32)c(=O)n(C)c1=O	-18.5	-51.0
53	COCCN(Cc1nc2ccccc2c(=O)[nH]1)C(=O)c1ccc(C)s1	1.5	5.5
54	CCOc1ccc(Oc2nnc(C)c3ccccc23)cc1	4.5	14.0
55	COCCn1c(-c2ccncc2)nn(CN2CC(C)OC(C)C2)c1=S (configuration not stated)	40.5	45.5
56	CN1/C(=C\C(=O)COC(=O)c2cccnc2)C(C)(C)c2ccccc21	11.5	17.0

(next part)
entry	SMILES	BmaI1 counterscreen	BmaI1
57	CCOC(=O)Cc1csc(SCC2=C(C(=O)OCC)C(C)NC(=O)N2)n1 (configuration not stated)	7.5	3.5
58	COc1ccc(N2C(=O)CCC(C(=O)NC3=NCCS3)C2c2ccccc2)cc1 (configuration not stated)	11.0	16.0
59	CC(=O)Nc1ccc(Oc2ccc(S(=O)(=O)N3CCCC3)cn2)cc1	-3.0	-1.5
60	COc1ccc(-c2nnc(SCC3COc4ccccc4O3)o2)cc1 (configuration not stated)	13.0	21.0
61	COc1ccccc1-c1c(C#N)c(N)nc(SSc2nc(N)c(C#N)c(-c3ccccc3OC)c2C#N)c1C#N	14.5	61.0
62	COc1ccc(-c2nc(O)c3cnccn23)cc1	77.0	91.0
63	O=C(CSc1nnc(Cc2cccs2)n1C1CCCCC1)c1ccccc1	0.0	1.0
64	Cc1csc(=O)n1CN1CCN(S(=O)(=O)c2ccccc2C#N)CC1	3.5	22.5
65	NNC(=O)CNc1nc2ccccc2s1	-51.5	-6.0
66	O=C(CCN1C(=O)C2CC=CCC2C1=O)Nc1cc(C(F)(F)F)ccc1-n1cncn1 (configuration not stated)	-3.5	3.0
67	CCOc1ccc(C(C)NC(=O)c2cccnc2OCC)cc1OCC (configuration not stated)	10.5	15.0
68	Cc1[nH]c2ccccc2c1C(c1ccncc1)N1CCCC1 (configuration not stated)	-8.0	-8.0
69	COc1ccc(NC(=O)CN2NS(=O)(=O)c3ccccc3C2=O)cc1Cl	8.0	11.0
70	CCCc1cc(=O)[nH]c(SCC(=O)c2cc(C)n(-c3nccs3)c2C)n1	-2.0	16.0
71	Cc1cc(/C=C(\C#N)C(=O)OCc2cc(=O)oc3cc(O)ccc23)c(C)n1CC(C)C	11.0	19.0
72	CC(=O)N1CCN(CC(=O)Nc2ccc3c(c2)OC(F)(F)O3)CC1	7.0	4.5
73	Fc1ccc(NC(=S)NC2CN3CCC2CC3)cc1 (configuration not stated)	10.0	4.5
74	CC(C)(CNc1nsc2ccccc12)N1CCOCC1	16.0	22.0
75	O=C(N/N=C/c1ccco1)c1cccc(S(=O)(=O)Nc2cccc(Cl)c2)c1	-5.5	3.5
76	COc1ccccc1CN(C)Cc1nc(N)nc(Nc2ccccc2C)n1	-12.0	-23.5
77	CC1=CC(=O)C(C(=O)/C=C/c2cc3ccccc3nc2N2CCOCC2)C(=O)O1 (configuration not stated)	-2.5	21.0
78	OC(CNC12CC3CC(CC(C3)C1)C2)COCc1ccco1 (configuration not stated)	5.5	7.0
79	CC1S/C(=C(/C#N)C(=O)NCc2ccco2)N(Cc2ccco2)C1=O (configuration not stated)	2.0	17.5
80	O=C(CSCc1ccco1)c1ccco1	1.0	15.0

From no. 1 as far as 2, as listed above:
entry	SMILES	BmaI1 counterscreen	BmaI1
1	CCCCc1ccc(C(NC(=O)CCCn2cnc3c2c(=O)n(C)c(=O)n3C)c2cccs2)cc1 (configuration not stated)	3.0	8.0
2	Oc1ccc(-c2nc3ccccc3s2)cc1	13.0	19.5

New compounds follow:
entry	SMILES	BmaI1 counterscreen	BmaI1
81	CN=c1scc(-c2ccc3c(c2)OCCO3)n1/N=C/c1ccc(NC(C)=O)cc1	20.0	10.5
82	c1ccc2c(c1)-c1ccccc1C2N1CCOCC1	-4.5	-5.5
83	O=C(CCNS(=O)(=O)c1ccccc1)N1CCCc2ccccc21	-5.0	14.0
84	Cc1cc(C)nc(SCC(=O)OCc2cc(=O)n3ccsc3n2)n1	1.0	7.0
85	O=C(COC(=O)C1(c2ccccc2)CC1)c1ccc[nH]1	14.5	24.0
86	O=C(CCN1c2ccccc2Sc2ccccc21)NCCN1CCOCC1	-15.0	26.5
87	CCc1ccc(NC(=O)COC(=O)c2ccc3c(c2)nc(C)c(=O)n3CC)cc1	19.5	11.0
88	CC(=O)[C@]1(O)Cc2c(O)c3c(c(O)c2[C@@H](O[C@H]2C[C@H](N)[C@H](O)[C@H](C)O2)C1)C(=O)c1ccccc1C3=O	5.0	68.0
89	Cc1occc1-c1nnc(SCC2CCCCO2)n1-c1ccccc1 (configuration not stated)	-4.5	13.5
90	O=C(OCCCn1c(=O)[nH]c2ccccc21)c1ccccc1SCC(=O)N1CCCC1	10.0	20.0
91	COCCn1c(SCC(=O)NC23CC4CC(CC(C4)C2)C3)nnc1-c1ccncc1	7.0	9.5
92	O=C(O)c1nccnc1-c1nc2ccccc2s1	-2.5	28.0
93	CC1CC(C)CN(C(=O)COC(=O)c2ccccc2NS(=O)(=O)c2ccc3c(c2)OCCO3)C1 (configuration not stated)	-9.0	-6.5
94	CC(=O)N1CCN(c2nc(C)nc3sc(-c4ccccc4)cc23)CC1	18.0	10.5
95	O=C(COC(=O)c1ccc(CS(=O)(=O)c2ccccc2)o1)c1ccc[nH]1	9.0	14.0
96	Cc1ccc(NC(=O)COC(=O)C2CCN(C(=O)OC(C)(C)C)CC2)cc1C	17.5	18.5
97	COc1ccc(CCC(=O)NC2CCC(C)CC2)cc1 (configuration not stated)	15.5	18.0
98	COC(=O)c1c(O)cc(=O)n2c1CCC2	-1.5	-1.0
99	CC(C)c1nc(CN(C)C(=O)N[C@H](C(=O)N[C@@H](Cc2ccccc2)C[C@H](O)[C@H](Cc2ccccc2)NC(=O)OCc2cncs2)C(C)C)cs1	-9.0	-9.5
100	Cc1ccc(S(=O)(=O)NC(=O)c2nnc(-c3ccc(F)cc3)o2)cc1	-5.5	12.5
101	Nc1nc(N)nc(SCC(=O)N2CCCC2)n1	1.0	4.5
102	CN(Cc1c(F)cccc1Cl)C(=O)C1CC(=O)N(CCc2ccccc2)C1 (configuration not stated)	-8.0	-7.0
103	Cc1ccc2nc(N3CCCC3)nc(-c3ccccc3)c2c1	2.5	3.0
104	CC(N=C(NC#N)Nc1ccncc1)C(C)(C)C (configuration not stated)	10.5	6.0
105	CC1(O)C2C3CC4C5C3C1C5C1(OCCO1)C42 (configuration not stated)	-6.0	-8.5
106	CC1(C)C(=O)N(c2ccccc2F)C(=O)c2ccccc21	16.0	25.5
107	CC(c1ccccc1)n1c(-c2cccc(S(=O)(=O)N3CCOCC3)c2)n[nH]c1=S (configuration not stated)	15.0	77.5
108	O=C(c1ccco1)N1CCC(c2nc3ccccc3s2)CC1	0.0	13.0
109	O=C1C=C/C(=N/N(Cc2ccccc2)c2ccccc2)O1	9.5	17.0
110	Clc1ccc(C2=CC(c3ccco3)n3ncnc3N2)cc1 (configuration not stated)	-5.0	-13.5
111	COc1ccc(N2CCN(c3nn(C)c(=O)n(C)c3=O)CC2)cc1	-15.5	41.0
112	CC1CC(C)(C)CC2(C1)NC(=O)N(Cc1cccc(S(=O)(=O)N(C)C)c1)C2=O (configuration not stated)	11.0	20.0
113	Cc1cc(C(=O)CSc2nc(N)cc(N)n2)c(C)n1C	16.0	13.5

These rows are one share of the data (hit frequency here may not be typical).
